From PubChem
ID4 binder = binders of human ID4 protein, primary screen, biochemical, small molecule microarray, single point; 31,000 tested, 1.2% active; calls only; DNA-binding protein inhibitor ID-4 (Homo sapiens), P47928; Flag-ID4 binding, fluorescence F/B;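 active = spot signal over background at p below 0.07 in all four prints; compounds were printed on slides so no solution concentration is given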;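 note: a binder raises fluorescence above local background on the spot; about 2 pmol printed per array spot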
Target sequence (P47928 whole entry, looked up): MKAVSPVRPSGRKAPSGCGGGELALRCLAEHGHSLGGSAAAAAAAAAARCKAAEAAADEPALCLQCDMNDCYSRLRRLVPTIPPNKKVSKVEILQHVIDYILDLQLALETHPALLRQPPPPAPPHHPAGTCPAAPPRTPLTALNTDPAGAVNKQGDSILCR
Calls only; i = inactive. A portion of the library; rates above refer to the full screens.

SMILES | ID4 binder
C[C@@H]1CN([C@H](C)CO)C(=O)c2cc(C3=CCCC3)cnc2O[C@H]1CN(C)C(=O)c1ccc(F)cc1 | i
Cc1cc(C)nc(SC(C)C(=O)Nc2ccc(S(N)(=O)=O)cc2)n1 (centres undefined) | i
Cc1c(NC(=O)COc2ccc(Br)cc2)cccc1-c1nc2ccccc2s1 | i
Cc1cccc(CSc2nnc(NC(=O)c3oc4ccc(F)cc4c3C)s2)c1 | i
C=C(C)[C@@H]1CC[C@]2(C(=O)O)CC[C@]3(C)[C@H](CC[C@@H]4[C@@]5(C)CC[C@H](O)C(C)(C)[C@@H]5CC[C@]43C)[C@@H]12 | i
COc1ccc(NC(=O)CSC2CC(=O)N(c3ccccc3C)C2=O)cc1 (centres undefined) | i
CCCC(=O)n1nc(-c2ccc(Cl)cc2)nc1NCc1ccco1 | i
O=C(Nc1ccccc1C(=O)O)c1cccc(S(=O)(=O)Nc2cccc(Br)c2)c1 | i
CC(=O)N(C)C[C@@H]1Oc2ncc(C3=CCCC3)cc2C(=O)N([C@H](C)CO)C[C@H]1C | i
CCC(=O)N[C@H]1CC[C@@H](CC(=O)NCc2ccccc2F)O[C@@H]1CO | i
CC(=O)N(C)C[C@@H]1OCc2ccccc2-c2c(n(C)c3ccccc23)C(=O)N([C@H](C)CO)C[C@H]1C | i
CN(C)c1ccc2c(c1)[C@@H]1C[C@@H](CC(=O)NCc3ccc4c(c3)OCO4)O[C@@H](CO)[C@@H]1O2 | i
O=C(C[C@@H]1CC[C@@H](NC(=O)Nc2ccc(F)cc2)[C@H](CO)O1)NCc1cccc(F)c1 | i
Cc1cc(Cl)ccc1NC(=O)CN1CCC(C(N)=O)(N2CCCCC2)CC1 | i
C[C@@H]1CN([C@H](C)CO)C(=O)c2cc(C#Cc3ccccc3)cnc2O[C@@H]1CN(C)Cc1ccccn1 | i

Exported as comma-separated lines: two of the compounds above
SMILES,ID4 binder
Cc1cccc(CSc2nnc(NC(=O)c3oc4ccc(F)cc4c3C)s2)c1,i
C=C(C)[C@@H]1CC[C@]2(C(=O)O)CC[C@]3(C)[C@H](CC[C@@H]4[C@@]5(C)CC[C@H](O)C(C)(C)[C@@H]5CC[C@]43C)[C@@H]12,i

(list continues)
SMILES | ID4 binder
N#C[C@@H]1[C@@H](c2ccccc2)[C@@H](CO)N1S(=O)(=O)Cc1ccccc1 | i
NC(=O)CSc1nc2c(c(=O)n1CCc1ccccc1)C1(CCCCC1)Cc1ccccc1-2 | i
C[C@H](CO)N1C[C@H](C)[C@@H](CN(C)Cc2ccccn2)Oc2ncc(C#CCN(C)C)cc2C1=O | i
Cc1ccccc1-c1cnc2c(c1)C(=O)N([C@@H](C)CO)C[C@H](C)[C@H](CN(C)CC1CCCCC1)O2 | i
O=C(CC1CC1)Nc1ccc2c(c1)[C@@H]1C[C@@H](CC(=O)N3CCc4ccccc4C3)O[C@H](CO)[C@@H]1O2 | i
O=C(COc1ccc(CO)cc1Cl)Nc1ccc(F)cc1 | i
O=C(CSc1nc2ccccc2c(=O)[nH]1)Nc1cccc(I)c1 | i
O=C(C[C@@H]1C[C@H]2c3cc(NC(=O)Nc4ccc(F)cc4)ccc3O[C@H]2[C@H](CO)O1)NCC(F)(F)F | i
COC(=O)c1cc(OC)c(OC)cc1NC(=O)CSc1nnc(-c2cccnc2)n1C | i
C[C@@H]1CN([C@H](C)CO)C(=O)c2cc(-c3cccc(C#N)c3)cnc2O[C@@H]1CN(C)Cc1ccc(F)cc1 | i
Cc1sc2ncn(CC(=O)Nc3ccc(Oc4ccccc4)cc3)c(=O)c2c1-c1ccccc1 | i
CCC(=O)Nc1ccc2c(c1)OC[C@@H](C)N(Cc1cccc(F)c1)C[C@@H](C)[C@H](OC)CN(C)C2=O | i
Cc1ccc(S(=O)(=O)N[C@H]2CC[C@@H](CC(=O)N3CCC(Cc4ccccc4)CC3)O[C@H]2CO)cc1 | i
CCCN(C)C[C@H]1Oc2ncc(C#CCC(C)C)cc2C(=O)N([C@@H](C)CO)C[C@@H]1C | i
COCCNC(=O)C[C@H]1C[C@@H]2c3cc(NC(=O)NC4CCCCC4)ccc3O[C@@H]2[C@@H](CO)O1 | i
C/C=C/c1cnc2c(c1)C(=O)N([C@H](C)CO)C[C@@H](C)[C@H](CN(C)CC1CCOCC1)O2 | i
O=C(COc1ccc(S(=O)(=O)N2CCOCC2)cc1)Nc1ccc2c(c1)OCCO2 | i
COc1ccc(S(=O)(=O)N(C)C[C@H]2Oc3cc(C#CC4CCCCC4)ccc3S(=O)(=O)N([C@H](C)CO)C[C@H]2C)cc1 | i
COc1ccc([N+](=O)[O-])cc1NC(=O)CN(c1ccc(Br)c(C)c1)S(C)(=O)=O | i
C[C@H](CO)N1C[C@H](C)[C@H](CN(C)CC2CC2)Oc2cc(-c3ccccc3F)ccc2S1(=O)=O | i
CCCCOc1cc(CC2CNC(=O)N2)ccc1OC (centres undefined) | i
CNC[C@H]1Oc2cc(C#CCC(C)C)ccc2S(=O)(=O)N([C@H](C)CO)C[C@@H]1C | i
CN(C)CCc1c[nH]c2ccc(CS(=O)(=O)N3CCCC3)cc12 | i
COc1ccc(OC)c(NC(=O)C(C)N(c2ccc(C)c(C)c2)S(C)(=O)=O)c1 (centres undefined) | i
COC(=O)CN(c1ccc(Cl)c(C(F)(F)F)c1)S(=O)(=O)c1ccc(C)cc1 | i
O=C(CSc1nc2ccccc2c(=O)n1-c1ccc(Br)cc1)Nc1cccc(F)c1 | i
C/C=C/c1cnc2c(c1)C(=O)N([C@@H](C)CO)C[C@H](C)[C@H](CN(C)C(=O)C1CCCCC1)O2 | i
O=C(Nc1ccc(S(=O)(=O)Nc2ncccn2)cc1)c1ccc2c(c1)OCCO2 | i
C[C@@H]1CN([C@@H](C)CO)C(=O)c2ccccc2-c2ccccc2CO[C@H]1CN(C)C(=O)c1ccccc1 | i
COc1cc2c(cc1NC(=O)CSc1nnc(-c3cnccn3)n1-c1ccccc1)oc1ccccc12 | i
COC(=O)c1cccc(NC(=O)COc2ccc(OC)cc2)c1C | i
O=C(CCN1C(=O)c2ccccc2C1=O)NC(=S)Nc1ccccc1 | i
O=C(C[C@H]1CC[C@H](NC(=O)C2CCC2)[C@H](CO)O1)NC1CCC1 | i
Cn1nnnc1SCC(=O)Nc1ccc(N2CCOCC2)c(Cl)c1 | i
Cc1noc(C)c1NC(=O)N(C)C[C@@H]1Oc2ncc(C3=CCCCC3)cc2C(=O)N([C@@H](C)CO)C[C@@H]1C | i
CCn1c(SCc2nc3ccccc3c(=O)[nH]2)nnc1-c1cccnc1 | i
CS(=O)(=O)N(CC(=O)Nc1ccc(F)cc1)c1ccccc1 | i
COc1nc(Nc2ccccc2)nc(OCC(F)(F)F)n1 | i
O=C(C[C@@H]1C=C[C@H](NC(=O)c2ccc(F)cc2)[C@@H](CO)O1)NCCc1ccccc1 | i
COc1ccc(N2C(=O)CC(SCC(=O)Nc3ccc(C)cc3)C2=O)cc1 (centres undefined) | i
C[C@@H]1CN([C@H](C)CO)C(=O)c2cc(C3=CCCC3)cnc2O[C@@H]1CN(C)Cc1ccccc1 | i
CCN1CCC[C@H]1CNC(=O)c1c(O)c(Cl)cc(Cl)c1OC | i
CC1CCc2c(sc3ncn(CC(=O)Nc4ccccc4F)c(=O)c23)C1 (centres undefined) | i
CC(=O)c1cn(CC(=O)Nc2ccccc2)c2ccccc12 | i
CC(=O)c1cccc(NC(=O)C(C)NS(=O)(=O)c2ccc(Br)cc2)c1 (centres undefined) | i
CCOC(=O)c1c(-c2ccc(C)o2)csc1NC(=S)NC(=O)c1ccccc1Br | i
C[C@H](CO)N1C[C@H](C)[C@H](CN(C)C(=O)Nc2cccc(F)c2)Oc2ncc(C#CCN(C)C)cc2C1=O | i
Cc1cc(N(CC(=O)NC2CCCCC2)S(C)(=O)=O)ccc1Br | i
C[C@@H]1CN([C@H](C)CO)C(=O)c2cc(C#CC3CCCCC3)cnc2O[C@H]1CN(C)Cc1cccnc1 | i
C[C@@H]1CN([C@@H](C)CO)C(=O)c2cc(-c3cccc(F)c3)cnc2O[C@H]1CN(C)Cc1cccnc1 | i
CC(=O)NCCOc1nc(N(C)C)nc(N2CCOCC2)n1 | i
CCCN1C(=O)C(O)(CC(=O)c2ccc(OC)c([N+](=O)[O-])c2)c2cc(Br)ccc21 (centres undefined) | i
C[C@H](CO)N1C[C@H](C)[C@H](CN(C)C(=O)c2ccc(F)cc2)OCc2ccccc2-c2ccccc2C1=O | i
O=C(CSc1nnc(-c2ccncc2)n1-c1ccccc1)Nc1ccc(Br)cc1 | i
CNC[C@@H]1Oc2ncc(C#Cc3ccc(F)cc3)cc2C(=O)N([C@H](C)CO)C[C@@H]1C | i
CCOC(=O)c1c(NC(=O)CSc2nc(C)cc(C(F)(F)F)n2)sc2c1CCCC2 | i
CC(C)(C)c1ccc(Oc2ccc(NC(=O)C3CC=CCC3C(=O)O)cc2)cc1 (centres undefined) | i
C[C@@H](NC(=O)C[C@@H]1CC[C@@H](NC(=O)CN2CCOCC2)[C@H](CO)O1)c1ccccc1 | i
C[C@@H]1CN([C@@H](C)CO)S(=O)(=O)c2ccc(C#CC3CCCC3)cc2O[C@@H]1CN(C)C | i
CC(=O)c1cccc(NC(=O)CNS(=O)(=O)c2ccc(Cl)cc2)c1 | i
Other records
SMILES | ID4 binder
Cc1ccccc1-c1cnc2c(c1)C(=O)N([C@@H](C)CO)C[C@@H](C)[C@H](CN(C)CC1CCOCC1)O2 | i
COc1ccc2c(C)cc(=O)oc2c1 | i
C[C@@H]1CN([C@@H](C)CO)C(=O)c2cc(-c3cccnc3)cnc2O[C@@H]1CN(C)C(=O)Nc1ccc(C(F)(F)F)cc1 | i
Cc1c(NC(=O)COc2ccc(Cl)cc2Cl)cccc1-c1nc2cc(Cl)ccc2o1 | i
C[C@H]1CN([C@@H](C)CO)C(=O)c2c(c3ccccc3n2C)-c2ccccc2CO[C@H]1CN(C)CC1CC1 | i
CC(=O)Nc1ccccc1NC(=O)CCN1C(=O)c2ccccc2C1=O | i
C=C(CCCCCCCC(=O)O)C(=O)OC | i
CS(=O)(=O)N(CC(=O)Nc1ccc(I)cc1)c1ccc(Cl)c(Cl)c1 | i
COc1ccc(CCNc2nc(-c3ccc(NC(C)=O)cc3)cs2)cc1OC | i
O=C(COc1ccccc1Cl)Nc1cccc(Oc2ccc3c(c2)C(=O)NC3=O)c1 | i
COC(=O)c1c(-c2cccnc2)csc1NC(=O)c1cc(-c2ccc(C)o2)nc2ccccc12 | i
CC(=O)N(C)C[C@H]1Oc2ncc(-c3cccc(C#N)c3)cc2C(=O)N([C@@H](C)CO)C[C@H]1C | i
Cc1ccc(-c2csc3nnc(SCC(=O)Nc4ccc5c(c4)OCCO5)n23)cc1 | i
CN(c1ccccc1C(=O)NCc1ccccn1)S(C)(=O)=O | i
CCCCCc1c2c(cc(O)c1C(=O)O)OC(=O)c1c(cc(OC)cc1C(=O)CCCC)O2 | i

Fetched by structure from the list above:
SMILES | ID4 binder
Cc1c(NC(=O)COc2ccc(Cl)cc2Cl)cccc1-c1nc2cc(Cl)ccc2o1 | i
C[C@H]1CN([C@@H](C)CO)C(=O)c2c(c3ccccc3n2C)-c2ccccc2CO[C@H]1CN(C)CC1CC1 | i

(cont.)
SMILES | ID4 binder
O=C(CSc1nnc(-c2ccccc2)n1-c1ccccc1)Nc1c(F)cc(F)cc1Br | i
C[C@@H]1CN([C@H](C)CO)C(=O)c2cc(C#Cc3ccccc3)cnc2O[C@H]1CN(C)C(=O)CN(C)C | i
O=C(O)C[C@H]1CC[C@@H](NC(=O)c2ccccc2F)[C@H](CO)O1 | i
Nc1ccc2nc(SCc3cccc(F)c3)sc2c1 | i

Part of the list above, with each value named:
molecule: O=C(C[C@@H]1CC[C@@H](NC(=O)Nc2ccc(F)cc2)[C@H](CO)O1)NCc1cccc(F)c1
  ID4 binder = i
molecule: Cc1cc(Cl)ccc1NC(=O)CN1CCC(C(N)=O)(N2CCCCC2)CC1
  ID4 binder = i
molecule: C[C@@H]1CN([C@H](C)CO)C(=O)c2cc(C#Cc3ccccc3)cnc2O[C@@H]1CN(C)Cc1ccccn1
  ID4 binder = i
molecule: N#C[C@@H]1[C@@H](c2ccccc2)[C@@H](CO)N1S(=O)(=O)Cc1ccccc1
  ID4 binder = i
